Screens: PubChem BioAssay, National Center for Advancing Translational Sciences (NCATS)
AID923: qHTS Assay for Allosteric/Competitive Inhibitors of Caspase-1: Spectroscopic Profiling in AFC Spectral Region | compound fluorescence, AFC spectral region (405/520 nm); almost no hit is shown here | Potency, µM (series often up to 57.5 µM), for the others: top-dose fluorescence increase, usual class: activators | hit rate 1.1% among 75,000; active = well fitted activation curve with a large enough effect; inconclusive = small, poorly fitted or top-dose-only effect;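 note: potency is the fitted concentration of half-maximal effect; 0% is about no effect; scaled to a free AFC standard on each plate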
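Compound autofluorescence profiled at 405 nm ex/520 nm em during kinetic caspase 1 run (50 nM enzyme, 5 uM Ac-WEHD-AFC, HEPES pH 7.5, 10 mM DTT). Titration up to 57 uM; baseline from regression intercept, normalized to AFC standard curve.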
A488 fluor: compound autofluorescence in A488 spectral region | compound autofluorescence, A488 spectral region, dye equivalency; hits give high values | max dye equivalency, M | hit rate 0.1% among 59,000; active = above 10 nM dye equivalent; inconclusive = 1 to 10 nM; inactive = 1 nM or less; about half of its hits are not listed in these tables;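 note: highest value over a series up to 38 µM; compound alone in buffer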
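Intrinsic compound fluorescence is measured in 100 mM Tris buffer at pH 8.0 following 15 min incubation at room temperature. Intensities at 480 nm excitation/540 nm emission are calibrated to an on-plate A488 concentration series, giving dye-equivalent concentrations.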
Resorufin autofl: resorufin region autofluorescence | max dye-equivalent concentration, M | Compound fluorescence, resorufin region 547/598 nm, buffer; hits give high values | hit rate 0.04% among 59,000; active = above 10 nM dye equivalent; inconclusive = 1 to 10 nM; inactive = 1 nM or less; a few of its hits are not listed in these tables; note: highest value over a series up to 38 µM
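Tris 100 mM pH 8.0; compound added, 15 min RT; CCD imager read, ex 547 nm/em 598 nm; signal normalized to resorufin standard curve (six concentrations per plate) as dye-equivalent concentration.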
TSHR agonist: TSH receptor (human) agonism; HEK293-CNG-TSHR cells (CNG channel as cAMP sensor), membrane potential dye, cAMP; Potency, µM (top dose mostly 57.1 µM), for the others: at the highest dose activation, actives largely listed as activators; P16473; hit rate 0.48% among 73,000; AID 926; active = well fitted activation curve of enough size with the parental cells flat; inconclusive = any curve in the parental cells; inactive = parental cells flat and receptor cells flat or falling; note: potency is the fitted concentration of half-maximal effect; % of control where 0% means no effect; weak receptor curves with flat parental cells got no call and are not listed
Target sequence (P16473 whole entry, looked up): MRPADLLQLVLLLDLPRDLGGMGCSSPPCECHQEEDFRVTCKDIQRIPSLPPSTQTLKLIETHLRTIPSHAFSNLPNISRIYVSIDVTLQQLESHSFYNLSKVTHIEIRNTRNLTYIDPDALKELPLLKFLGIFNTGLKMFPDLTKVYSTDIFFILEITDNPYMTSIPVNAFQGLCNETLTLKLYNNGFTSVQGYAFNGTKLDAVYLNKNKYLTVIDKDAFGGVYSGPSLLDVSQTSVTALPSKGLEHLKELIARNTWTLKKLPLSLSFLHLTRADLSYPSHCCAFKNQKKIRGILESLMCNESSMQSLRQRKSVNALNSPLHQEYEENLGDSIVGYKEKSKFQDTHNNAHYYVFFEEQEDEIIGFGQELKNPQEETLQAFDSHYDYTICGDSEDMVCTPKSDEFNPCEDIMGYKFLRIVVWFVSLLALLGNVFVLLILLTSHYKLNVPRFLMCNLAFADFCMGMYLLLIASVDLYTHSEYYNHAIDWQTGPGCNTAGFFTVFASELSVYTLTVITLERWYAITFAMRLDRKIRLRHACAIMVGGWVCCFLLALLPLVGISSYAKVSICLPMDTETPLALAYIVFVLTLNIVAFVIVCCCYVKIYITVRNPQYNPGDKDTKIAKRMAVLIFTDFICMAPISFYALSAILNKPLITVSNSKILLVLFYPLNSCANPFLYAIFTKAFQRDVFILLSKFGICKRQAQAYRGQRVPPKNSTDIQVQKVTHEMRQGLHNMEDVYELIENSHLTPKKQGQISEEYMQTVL
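HEK 293 cells stably expressing TSHR and a cAMP-gated CNG channel; parental CNG-only cells as counterscreen. Cells preloaded 60 min with membrane potential dye plus 100 uM RO 20-1724, then compound 30 min; fluorescence read at 590 nm.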
A647 autofl: compound autofluorescence in A647 spectral region; Compound fluorescence, A647 channel (570/671 nm), Tris buffer; AID 592; 59,000 tested, under 10 active; max dye-equivalent concentration, M; active means above 1 µM dye equivalent; inconclusive means 0.1 to 1 µM; inactive means 0.1 µM or less;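 note: values scaled relative to a standard on each plate; highest value over a series up to 38 µM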
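Tris 100 mM pH 8.0; cpd + A647 stds pin-transferred; 15 min RT; CCD imager, ex 570/em 671. Output = A647-equivalent conc. per cpd conc.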
Starred values were filed as active, the others as inactive; i = inactive; ? = inconclusive; . = no result given; & = joins results of further samples; [ ] = another dose, or the depositor's remark. An excerpt, so the mix of outcomes need not match the whole.

mol,AID923,TSHR agonist,Resorufin autofl,A488 fluor,A647 autofl
COc1ccc(CNC(=O)COC(=O)c2n[nH]c3ccccc23)cc1OC,-1.4%,15%,i,i,1.6e-08
Cc1ccc(C(=O)OCC(=O)Nc2ccccc2)cc1NC(=O)c1ccco1,0.1%,10%,i,i,1e-09
CCn1c(=O)cc(OCC(=O)Nc2nc(C)cs2)c2ccccc21,-0.9%,2%,.,.,.
CCC1CCCCN1C(=O)COC(=O)c1cc2ccccc2cc1O (stereo not given),0.1%,?,i,i,2.4e-09
CC1(C)CC(=O)C=C(Nc2ccc(OCC(F)(F)C(F)F)cc2)C1,0.1%,25%,.,.,.
COC(=O)c1ccc2ccn(CC(=O)NC(C)C)c2c1,0.3%,7%,i,i,2.1e-08
CN(C)c1nc(N(C)C)nc(N(C)C)n1,1.5%,0%[25.6 µM],i,i,8.5e-09&2.3e-08&7.1e-09
Cc1onc(-c2ccccc2Cl)c1C(N)=O,1.4%,1%,i,i,1e-09
Cc1cc(C)n(S(=O)(=O)Cc2ccccc2)n1,.,.,i,i,3e-08
COC(=O)C1=C(C)N=C2SCCC(=O)N2C1c1cc(Br)ccc1OC (stereo not given),1.5%,-5%,i,i,3.5e-09
Cc1ccccc1-c1nc(CN2CCC(C(=O)NCCCN3CC(C)CC(C)C3)CC2)c(C)o1 (stereo not given),-0.3%,6%,i,i,3.1e-08
Cc1ccc(-c2noc(CCC(=O)Nc3ccccc3C)n2)cc1,2.6%,?,i,i,2.4e-08
COc1ccccc1CNc1ncnc2c1nnn2Cc1ccccc1,-0.8%,?,i,i,1e-09
Cc1nc2cnc(OCc3ccccc3)nc2n(C)c1=O,0.7%,2%,i,i,1e-09
O=C1N/C(=N/c2ccccn2)SC1Cc1ccccc1 (stereo not given),0.8%,0%,.,.,.
CN(C)CCN1C(=O)c2oc3ccccc3c(=O)c2C1c1ccc(F)cc1 (stereo not given),0.0%,1%,i,i,4.5e-08
Cc1ccc(S(=O)(=O)c2nc(Nc3nccs3)sc2Cl)cc1,0.7%,9%,.,.,.
O=C(COC(=O)c1ccc2c(c1)OCCO2)NCc1ccccc1,2.4%,?,i,i,2.6e-09
COC(=O)CSc1nnc(CCc2nc3ccccc3[nH]2)n1C,-0.9%,-1%,i,i,1e-09
Cc1cc(C)n(C(=O)c2ccc(C)c(S(=O)(=O)N3CCCC3)c2)n1,0.7%,.,i,i,7.2e-09
CC(=O)N1CCC(N(CCCOC(C)C)C(=O)Nc2ccc(Cl)cc2)CC1,-0.1%,5%,.,.,.
COc1ccccc1CNc1ncncc1-c1cccnc1,4.9%,15%,i,i,2.8e-08
C=CCn1c(SCC(=O)N2CCOCC2)nc(O)c(Cc2ccccc2)c1=O,-0.4%,21%,.,.,.
Cc1sc2nc(CSc3nnc(Cc4cccs4)n3C3CCCCC3)[nH]c(=O)c2c1C,5.0%,8%,i,i,4e-09
CC(=O)Nc1ccc(-c2cc(NC(C)=O)n(-c3ccccc3)n2)cc1,-1.7%,0%,.,.,.
COc1ncc2nc(-c3ccc(Cl)cc3)c(=O)n(CCC#N)c2n1,3.5%,0%,i,i,1e-08
Cc1ccc2c(c1)N(CCC(=O)NCc1ccc3c(c1)OCO3)C(=O)CO2,1.0%,12%,i,i,1e-09
CCOC(=O)c1c(NC(=O)CSc2nnnn2CC)sc(C)c1C,0.6%,11%,i,i,1e-09
COCCn1c(=O)c(C)nc2cnc(Oc3ccc(OC)cc3)nc21,1.7%,?,i,i,1e-09
COc1ccc2[nH]c(=O)c(CN(C)C(=O)COc3ccccc3)cc2c1,-2.9%,15%,i,i,1.9e-09
CCOC(=O)c1[nH]c(C)c(C(=O)Nc2ccc(C)c(Cl)c2)c1C,0.1%,?,i,i,1e-09
CCCc1cc(-c2[nH]ncc2-c2ccc(C(=O)OCC)o2)c(O)cc1O,?,-11%,i,i,1.2e-09
C[C@@H](Nc1nc(-c2ccccc2)nc2c1oc1ccccc12)C(=O)O,0.7%,-6%,i,i,2.7e-09
Cc1noc(C)c1C(=O)NCCC1=CCCCC1,-1.7%,12%,i,i,3.2e-08
CC1CN(c2c3c(nc4ncnn24)CCCC3)CC(C)O1 (stereo not given),-1.5%,-2%,i,i,6.3e-08
CCOc1ccc2[nH]c(C)c(CN3CCN(CC)CC3)c(=O)c2c1,0.0%,-2%,i,i,8.5e-09
CCOCCCNc1ncc2c(n1)CC(c1ccc(C)cc1)CC2=O (stereo not given),0.2%,?,i,i,2e-08
Nc1nc2n(n1)C(c1ccco1)CC(c1ccccc1)N2 (stereo not given),0.8%,0%,i,i,6.8e-09
CC(=O)c1ccc(O)c(CO)c1,.,.,i,i,5.5e-08
CC1CCCCC1N1CCN(C(=O)c2cccc(F)c2)CC1 (stereo not given),-1.5%,1%,i,i,2e-08
COc1ccc(-c2cc(C(=O)NCCN3CCOCC3)c3ccccc3n2)c(OC)c1,1.1%,-11%,.,.,.
CN1CCCC2(CCN(S(=O)(=O)c3ccccc3)CC2)C1,0.7%,8%,i,i,4.1e-09
CN1CCCC[C@@H]1CCN1c2ccccc2Sc2ccc(S(C)=O)cc21 (stereo not given in full),-4.7%[11.5 µM],?,i,i,5.1e-08&3.2e-08
CC[C@]1([C@H]2O[C@@H]([C@@H]3O[C@](O)(CO)[C@@H](C)C[C@H]3C)C[C@H]2C)CC[C@@H]([C@]2(C)CC[C@@]3(C[C@@H](O)[C@@H](C)[C@@H]([C@H](C)[C@H](OC)[C@H](C)C(=O)O)O3)O2)O1,-1.5%[25.7 µM],21%[25.6 µM],i,i,1.8e-08
COC(=O)COC(=O)CC(CC(N)=O)c1ccccc1 (stereo not given),1.6%,10%,.,.,.
Cn1c(NC(=O)c2ccco2)c(-c2ccccc2Cl)c(=O)c2ccccc21,-1.2%,9%,i,i,1e-09
CCOC(=O)/C(C#N)=C1/C=CN(Cc2ccccc2)C=N1,3.6%,5%,.,.,.
O=C(Nc1cccc(Cl)c1N1CCCC1)c1cc2ccccc2o1,0.2%,?,i,i,3.1e-09
COC(=O)c1ccccc1NC=C1C(=O)OC2(CCCCC2)OC1=O,.,.,i,i,1e-09
Cc1cc(=O)[nH]c(SCC(=O)Nc2nc3c(s2)CCCC3)n1,-0.6%,0%,i,i,1e-09
O=S(=O)(Nc1ccc2nc(C(F)(F)F)[nH]c2c1)c1ccccc1,-1.1%,-15%[11.4 µM],.,.,.
COc1ccccc1Nc1nnc(SCC(=O)N2CCCC2=O)s1,-1.8%,-5%,i,i,1.1e-08
CC1CCCCC1N=CC1=C(O)CC(C)(C)CC1=O (stereo not given),-0.6%,-6%,.,.,.
CCCCn1c(SCC(=O)NC(=O)NCc2ccco2)nc2cc(S(N)(=O)=O)ccc21,-0.2%,25%,i,i,2.9e-08
Oc1ccccc1-c1nnc(COc2ccc(Cl)cc2Cl)o1,0.6%,25%,.,.,.
CCN1CCN(S(=O)(=O)c2ccc(OC)c(Br)c2)CC1,-1.2%,?,i,i,2.7e-08
O=C(Nc1cccnc1)c1cnc2ccccc2n1,0.1%,-11%,i,i,1e-09
Cc1ccc(-c2nnc(SCC(=O)Nc3ccc4c(c3)OCCO4)n2N)cc1,-0.7%,-4%,i,i,9.3e-09
CC(=O)c1cccc(NC(=O)N2CCCC2C(=O)NCc2ccc(C)cc2)c1 (stereo not given),-0.7%,-1%,i,i,6.7e-09
C=CC[C@@H]1C=C[C@H](O/N=C(\C)CCN2CCCc3nc(C)c(C)cc32)[C@H](CO)O1,3.0%[11.5 µM],1%[11.4 µM],.,.,.

Next part
mol,AID923,TSHR agonist,Resorufin autofl,A488 fluor,A647 autofl
CCSc1nc2ccccc2n1CC(N)=O,0.5%,2%,i,i,2.9e-09
Nc1ccccc1S[C@@H](C[N+](=O)[O-])c1ccc2c(c1)OCO2,3.0%[11.5 µM],3%[11.4 µM],i,i,4.2e-08
CC(=O)NC1=NC(=O)/C(=C/N2CCOCC2)S1,4.2%,-2%,i,i,1e-09
Cn1cccc1Cc1nnc(SCC(=O)N2CCN(c3ccccc3)CC2)n1-c1ccc(F)cc1,1.9%,3%,i,i,1.1e-08
CCOC(=O)c1c(C)[nH]c(C)c1-c1ccccc1OC,0.5%,-1%,i,i,1e-09
COc1ccccc1C(CC(=O)Nc1nccs1)c1ccco1 (stereo not given),.,.,i,i,5.6e-09
COc1ccc(CCNC(=O)CSc2nnc(-c3cccc(F)c3)o2)cc1OC,-1.8%,-5%,i,i,1e-09
c1ccc(Cn2nnc3c(N4CCc5ccccc5C4)ncnc32)cc1,0.3%,?,i,i,1e-09
COc1ccc(CNC(=O)C2CCNCC2)cc1,-2.5%,-11%,i,i,7.4e-09
Cc1nnc(SCC(=O)NCCN2C(=O)CSC2=O)s1,-1.0%,-2%,i,i,1e-09
CC(=O)Nc1nc2c(c3c1c(=O)oc1ccccc13)CCCCC2,0.6%,8%,i,i,1.2e-08
O=C(NC1CCCCC1)N1CCCC(c2nc3ccccc3[nH]2)C1 (stereo not given),1.1%,-1%,i,i,1e-09
Cc1ccc(Cn2ncc3c(N4CCCC4)ncnc32)cc1,0.0%,7%,i,i,4.2e-08
COc1ccccc1C(=O)n1nc(-c2ccco2)nc1N,1.0%,-1%,i,i,3.5e-08
Cn1c(=O)c2c(nc(CN3CCc4ccccc4C3)n2CC(=O)c2ccccc2)n(C)c1=O,7.3%,?,i,i,3.8e-08
CC(C)CC(NC(=O)C1CCC(C)CC1)C(=O)Nc1cccnc1 (stereo not given),1.6%,5%,i,i,1e-09
COc1ccc(C2C(C(=O)c3cccs3)=C(O)C(=O)N2c2nnc(C)s2)cc1OC (stereo not given),0.6%,-1%[11.4 µM],.,.,.
COc1ccccc1C(=O)NCCc1nc2ccccc2[nH]1,2.0%,19%,i,i,2.1e-08
CC(C)c1ccccc1N=C1SCCN1C1CCS(=O)(=O)C1 (stereo not given),0.0%,-1%,i,i,2.6e-09
Cc1c(C(=O)Nc2cnccn2)oc2ccccc12,-0.9%,5%,i,i,1e-09

Structures listed so far that contain a cyano group, in the order listed:
mol,AID923,TSHR agonist,Resorufin autofl,A488 fluor,A647 autofl
COc1ncc2nc(-c3ccc(Cl)cc3)c(=O)n(CCC#N)c2n1,3.5%,0%,i,i,1e-08
CCOC(=O)/C(C#N)=C1/C=CN(Cc2ccccc2)C=N1,3.6%,5%,.,.,.

Additional compounds.
mol,AID923,TSHR agonist,Resorufin autofl,A488 fluor,A647 autofl
O=C1CCCC2=C1C(c1cccs1)n1nc(SCc3ccccc3)nc1N2 (stereo not given),0.0%,-5%,i,i,4.5e-08
Cn1cccc1C(=O)N1CCC2(CC1)CCN(c1ncccn1)CC2,-3.8%,-1%,i,i,1.2e-09
N[C@H](COP(=O)(O)O)C(=O)O,.,11%,i,i,1e-08
O=C(CC(c1ccccc1)c1ccccc1)NCCO,0.5%,1%[11.4 µM],.,.,.
COc1cc(C2CC(=O)Nc3ccccc3S2)cc(OC)c1OC (stereo not given),0.1%,3%,i,i,3.4e-08
O=C(Nc1ccc(-c2noc(COc3ccccc3Cl)n2)cc1)c1ccco1,-0.5%,3%,i,i,6.4e-09

Some of the entries so far, with two lines to a compound:
Below each compound – AID923 | TSHR agonist | Resorufin autofl | A488 fluor | A647 autofl
N[C@H](COP(=O)(O)O)C(=O)O
  . | 11% | i | i | 1e-08
O=C(CC(c1ccccc1)c1ccccc1)NCCO
  0.5% | 1%[11.4 µM] | . | . | .
